TAR Tat displ = HIV-1 TAR-Tat binding disruption. z-score (concentration not given with the values). hit rate 0.6% among 100,000. AID 1259389. HIV-1 TAR RNA, Tat peptide displacement FRET; active compounds read high;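 also: score is relative to mean and SD of negative controls; some compounds called inactive have numbers as strong as hits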
CDC25B CDK2 inh = human CDC25B-CDK2/CyclinA binding inhibition. AID 1259370. P30305+P24941. HTRF CDC25B-CDK2/CyclinA binding, anti-His/anti-Flag; active compounds read high. hit rate 0.72% among 94,000. z-score (concentration not given with the values);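 also: score is relative to mean and SD of negative controls; strong numbers were not always called active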
* hit, by the source's call.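 The calls were made as follows: active = z-score from 3 up in half or more of its runs; inactive = the rest.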 No enrichment for hits; about 0.87% have a hit in one of these screens.

Screening O=C(Nc1nccs1)C1CCCN(S(=O)(=O)c2c[nH]c(C(=O)N3CCCC3)c2)C1 (stereo not drawn) returned TAR Tat displ 1.
`C=C(C)CSc1nc(-c2ccccc2)c(C#N)c(=O)[nH]1` gave TAR Tat displ -1.3 and CDC25B CDK2 inh 0.01.
Screening Fc1ccc(-c2noc3ncnc(N4CCC(c5ccccc5)C4)c23)cc1 (stereo not drawn) returned TAR Tat displ -0.84.
`CCCCC1CCC(C(=O)Nc2onc3c2CCCC3)CC1` (stereo not drawn) gave TAR Tat displ 0.91 and CDC25B CDK2 inh -2.1.
Screening O=C(Nc1ccc(O)c(-c2nc3ccccc3o2)c1)c1ccc(-c2cccc(Cl)c2)o1 returned CDC25B CDK2 inh -1.7.
CC(=O)NC(C)c1ccccc1 (stereo not drawn) was read as CDC25B CDK2 inh -0.75.
For O=C1NCCN1Cc1ccc(Cl)cc1 the results were TAR Tat displ 0.67.
Screening COc1ccc2ncc(S(=O)(=O)c3ccccc3)c(N3CCCC3)c2c1 returned TAR Tat displ -0.93 and CDC25B CDK2 inh -0.84.
Screening O=C(c1ccc(F)cc1)c1cn(Cc2ccccc2)c2cc3c(cc2c1=O)OCO3 returned CDC25B CDK2 inh -0.3.
COC(=O)C1CCN(c2ncnc3c2cnn3C)CC1 was read as TAR Tat displ 0.85.
For Cc1nn(CCCC(=O)NCCc2ccc(Cl)cc2)c(=O)c2cc3sccc3n12 the results were CDC25B CDK2 inh -3.8.
CCOC(=O)c1c(N)ssc1=S was read as CDC25B CDK2 inh -1.2.
CS(=O)(=O)N1N=C(c2cccs2)CC1c1cn(-c2ccccc2)nc1-c1cccs1 (stereo not drawn) was read as TAR Tat displ 5 and CDC25B CDK2 inh -5.8.
Cc1nc(/C(N)=N/OC(=O)c2ccc(C(F)(F)F)cc2)cs1 was read as CDC25B CDK2 inh -0.65.
C=CCn1c(=O)sc2cc(NC(=O)CCC3CCCC3)ccc21 was read as TAR Tat displ -0.38.
Screening CCOCCCNC(=O)c1cn2c3c(ccc(Cl)c3c1=O)OC(C)C2 (stereo not drawn) returned TAR Tat displ 3.3.
CC(C)(CO)Cc1cc(C(C)(C)C)c(O)c(C(C)(C)C)c1 was read as CDC25B CDK2 inh -1.7.
Screening Cc1ccc(Nc2c(-c3ccc(N4CCOCC4)cc3)nc3cnccn23)cc1 returned CDC25B CDK2 inh 0.84.
`S=c1nc[nH]c2[nH]ncc12` gave CDC25B CDK2 inh -0.61.
CCC(=O)NCc1csc(-c2cccs2)n1 was read as CDC25B CDK2 inh 0.51.
For CCCN1C(=O)c2cc(C(=O)N3CCN(C)CC3)nn2CC1(C)C(=O)NC1CCCC1 (stereo not drawn) the results were TAR Tat displ 0.07.
Screening COC(=O)C1C(=O)C2=C(CC1C)NC(C)=C(C(=O)OC1CCCC1)C2c1ccccc1OC(C)C (stereo not drawn) returned TAR Tat displ 0.54 and CDC25B CDK2 inh -0.84.
Screening O=C(O)CSCC(=O)Nc1ccccc1SCCS(=O)(=O)c1ccc(Cl)cc1 returned CDC25B CDK2 inh -0.77.
Screening O=C(CSc1nncc2ccccc12)Nc1ccccc1 returned TAR Tat displ -0.08 and CDC25B CDK2 inh -0.96.

Continued (7 carried over from the part before).
Screening Cc1ccc(Nc2c(-c3ccc(N4CCOCC4)cc3)nc3cnccn23)cc1 returned CDC25B CDK2 inh 0.84.
`S=c1nc[nH]c2[nH]ncc12` gave CDC25B CDK2 inh -0.61.
CCC(=O)NCc1csc(-c2cccs2)n1 was read as CDC25B CDK2 inh 0.51.
For CCCN1C(=O)c2cc(C(=O)N3CCN(C)CC3)nn2CC1(C)C(=O)NC1CCCC1 (stereo not drawn) the results were TAR Tat displ 0.07.
Screening COC(=O)C1C(=O)C2=C(CC1C)NC(C)=C(C(=O)OC1CCCC1)C2c1ccccc1OC(C)C (stereo not drawn) returned TAR Tat displ 0.54 and CDC25B CDK2 inh -0.84.
Screening O=C(O)CSCC(=O)Nc1ccccc1SCCS(=O)(=O)c1ccc(Cl)cc1 returned CDC25B CDK2 inh -0.77.
Screening O=C(CSc1nncc2ccccc12)Nc1ccccc1 returned TAR Tat displ -0.08 and CDC25B CDK2 inh -0.96.
COC(=O)C(N)Cc1ccc(O)c(O)c1 (stereo not drawn) was read as TAR Tat displ -0.49 and CDC25B CDK2 inh -2.2.
Screening Cc1ccc2c(c1)c(=O)c(S(=O)(=O)c1ccc(F)cc1)cn2C returned TAR Tat displ 0.43 and CDC25B CDK2 inh -1.4.
`Cc1cc(C)cc(Oc2c(C)oc3c(CN4CCCC4)c(O)ccc3c2=O)c1` gave TAR Tat displ 1.1 and CDC25B CDK2 inh -0.6.
For CC(C)Cn1cc(NC(=O)Nc2cccc(F)c2)c2ccccc2c1=O the results were TAR Tat displ -1.4.
For CCCC1c2ccc(C)n2CCN1C(=O)NCC1CCC(C(=O)OCC)CC1 (stereo not drawn) the results were TAR Tat displ -9.3 and CDC25B CDK2 inh -0.51.
For CCn1c(SCc2nc(-c3ccccc3)no2)nnc1-c1ccco1 the results were TAR Tat displ 2 and CDC25B CDK2 inh -1.2.
Cn1cc(S(=O)(=O)c2cccc(Cl)c2)c(=O)c2cc(F)c(N3CCCCC3)cc21 was read as TAR Tat displ -0.11.
Screening CCc1nn(CC(=O)N2CCN(CC)CC2)c(=O)c2cc3occc3n12 returned TAR Tat displ 0.17 and CDC25B CDK2 inh 0.33.
`CN(C)/C=C/C=C/C(=O)c1cccs1` gave CDC25B CDK2 inh -0.72.
For O=[N+]([O-])c1cccc2c(Br)[nH]nc12 the results were CDC25B CDK2 inh -0.49.
Screening Nc1nc(SCC(=O)Nc2ccccc2Cl)ncc1S(=O)(=O)c1ccccc1 returned TAR Tat displ 0.41.
Screening COc1cc(NC(=O)COCc2cc(-c3ccco3)on2)c(OC)cc1Cl returned TAR Tat displ 0.13.
`CCCCCCCC/C=C\CCCCCCCC(=O)NCCO` gave CDC25B CDK2 inh -0.38.
For O=C(CCC(=O)N1CC=C(c2c[nH]c3ccccc23)CC1)NCCN1CCCC1 the results were TAR Tat displ 1.2 and CDC25B CDK2 inh 0.71.
Cc1cc2n(n1)CCC(=O)N2CCCC(=O)NCCC(C)C was read as TAR Tat displ 0.76.
For Cc1cc2c(cc1S(=O)(=O)NC1CCC(C)CC1)OCCN2C (stereo not drawn) the results were TAR Tat displ 2.9.
For C=CCN1C(=O)C2(c3ccccc31)c1c(oc3ccc(C)cc3c1=O)C(=O)N2CCCOC(C)C (stereo not drawn) the results were TAR Tat displ 1.3 and CDC25B CDK2 inh -0.34.
For O=C(Nc1ccccn1)c1cc(-c2cccnc2)nc2ccccc12 the results were TAR Tat displ 1.6.
For CC(=O)/C(C=Nc1ccc(Cl)cc1)=C(/O)C(F)(F)F the results were CDC25B CDK2 inh -0.27.
O=C1C(=O)N(c2cccnc2)C(c2ccccc2F)/C1=C(\O)c1ccc(Cl)cc1 (stereo not drawn) was read as TAR Tat displ 2.1 and CDC25B CDK2 inh -1.9.
For Cc1cc(S(=O)(=O)[C@H]2CS(=O)(=O)C[C@@H]2NCc2ccccc2C)ccc1F the results were TAR Tat displ -0.31 and CDC25B CDK2 inh -1.4.
O=C(Nc1ccc2c(c1)Sc1ccccc1C(=O)N2C1CC1)C1CC(=O)N(c2ccccc2)C1 (stereo not drawn) was read as TAR Tat displ 0.04.
For Cc1ccccc1-c1nc2cc(N)ccc2o1 the results were TAR Tat displ 0.58 and CDC25B CDK2 inh 0.08.
For Cc1ccc2scc(N3CCN(C/C=C/c4ccccc4)CC3)c(=O)c2c1 the results were TAR Tat displ 0.62.

Brought forward from above: two compounds, then new ones.
For Cc1ccccc1-c1nc2cc(N)ccc2o1 the results were TAR Tat displ 0.58 and CDC25B CDK2 inh 0.08.
For Cc1ccc2scc(N3CCN(C/C=C/c4ccccc4)CC3)c(=O)c2c1 the results were TAR Tat displ 0.62.
CSc1ccc(C2C3=C(CCCC3=O)Nc3[nH]n(-c4ccccc4)c(=O)c32)cc1 (stereo not drawn) was read as TAR Tat displ 2.2 and CDC25B CDK2 inh -3.6.
Cc1cc(C)cc(OCC(O)Cn2nc(C)cc2C)c1 (stereo not drawn) was read as TAR Tat displ 0.19 and CDC25B CDK2 inh -0.62.
`COc1ccc(O)c(C2=NN3C(C2)c2ccccc2OC3c2ccc(O)c(OC)c2)c1` (stereo not drawn) gave TAR Tat displ -4 and CDC25B CDK2 inh 0.02.
Screening Cc1ccc(S(=O)(=O)N2CN3CN(C2)CN(S(=O)(=O)c2ccc(C)cc2)C3)cc1 returned TAR Tat displ -0.07 and CDC25B CDK2 inh -1.2.
Screening O=C1CC(c2cccc(C(F)(F)F)c2)c2cc3c(cc2N1)OCO3 (stereo not drawn) returned CDC25B CDK2 inh -2.6.
CCOC(=O)N1CCc2c(sc3c2C(=O)NC(c2cccc(Cl)c2)N3)C1 (stereo not drawn) was read as TAR Tat displ -1.7 and CDC25B CDK2 inh -2.9.
For O=C1c2[nH]nc(-c3ccccc3O)c2C(c2ccc(Br)cc2)N1CC1CCCO1 (stereo not drawn) the results were TAR Tat displ 0.66 and CDC25B CDK2 inh -1.2.
For COc1ccc(C(Nc2cccc(C)n2)c2ccc3cccnc3c2O)cc1 (stereo not drawn) the results were TAR Tat displ -0.16 and CDC25B CDK2 inh -0.06.
For CCN1CCc2c(sc(-n3cccc3)c2CNC(=O)Nc2ccc(F)c(Cl)c2)C1 the results were TAR Tat displ -7.6.
Screening CCOCCCNC(=O)Cn1cc2c(n1)CCC(C)C2 (stereo not drawn) returned CDC25B CDK2 inh -2.1.
Screening CCc1nn2c(=O)cc(COC(=O)c3ccc(F)cc3)nc2s1 returned TAR Tat displ 0.58.
Screening O=C(CN1N=NC2C(=O)N(c3ccc(F)c(Cl)c3)C(=O)C21)Nc1ccc(F)cc1F (stereo not drawn) returned TAR Tat displ 2.3.
For NS(=O)(=O)c1ccc(NC(=O)CSCC(=O)O)cc1 the results were CDC25B CDK2 inh -0.52.
Screening CCN(CC)CCNC(=O)Cn1c(=O)c2cccn2c2cccnc21 returned TAR Tat displ -0.5.
Screening CCc1nnc(NC(=O)C2=Cc3cc(OC)ccc3OC=C2)s1 returned TAR Tat displ -0.76 and CDC25B CDK2 inh -2.
`Cn1c(SCCOc2ccccc2)nc2ccccc21` gave TAR Tat displ 1.4 and CDC25B CDK2 inh -0.64.
Screening Cc1ccc2nc(SCC(N)=O)nc(C)c2c1 returned TAR Tat displ 0.59 and CDC25B CDK2 inh -0.05.
Cc1ccc(-c2cc(C(F)F)nc(N3CCCCC3)n2)cc1 was read as CDC25B CDK2 inh -0.8.
`Cc1ccc([N+](=O)[O-])c(NC(=O)c2nn(-c3ccccc3)nc2C)c1C` gave CDC25B CDK2 inh -0.75.
Cc1nn(CC(=O)NCCCN2C(C)CCCC2C)c(=O)c2cc3occc3n12 (stereo not drawn) was read as TAR Tat displ 2 and CDC25B CDK2 inh -0.3.
For O=C(c1noc2ncnc(N3CCOCC3)c12)N1CCN(c2ccccc2F)CC1 the results were TAR Tat displ -2.2.
COC(=O)c1cc2sc(C)cc2n1Cc1nc(-c2ccc(C)cc2)oc1C was read as TAR Tat displ 2.1 and CDC25B CDK2 inh -8.7.
For NC[C@H]1O[C@H](O[C@H]2[C@H](O)[C@@H](O[C@H]3O[C@H](CO)[C@@H](O)[C@H](N)[C@H]3O)[C@H](N)C[C@@H]2N)[C@H](N)C[C@@H]1O the results were TAR Tat displ 3.
Cn1cc(-c2cc3n(n2)CCCN3C(=O)CCC(=O)NCCN2CCOCC2)c2ccccc21 was read as TAR Tat displ 0.16.
For Cc1sc(NC(=O)C2C3CCC(O3)C2C(=O)O)c(C(N)=O)c1-c1ccc(C(C)C)cc1 (stereo not drawn) the results were CDC25B CDK2 inh -0.63.
Screening COc1ccc(C(=O)CSc2nc(O)cc(=O)[nH]2)cc1 returned TAR Tat displ 0.96 and CDC25B CDK2 inh -0.02.
For CCOc1cc(Br)c(C2C(C#N)=C(N)Oc3cc(O)ccc32)cc1OCC (stereo not drawn) the results were CDC25B CDK2 inh -2.7.
For CCOC(=O)c1nc(N2CCOCC2)c2ccccc2n1 the results were TAR Tat displ 1.2.
For Cc1cccc2c1Oc1[nH]c(-c3cccnc3)nc(=S)c1C2 the results were TAR Tat displ -0.93 and CDC25B CDK2 inh -1.5.
Screening Cn1c(=O)c2c(-c3ccc(Cl)cc3)n(-c3ccc(F)cc3)cc2n(C)c1=O returned TAR Tat displ 0.03 and CDC25B CDK2 inh -0.45.
`COc1ccc(N2C(=O)c3cccnc3C2Nc2cccc(Br)c2)cc1` (stereo not drawn) gave TAR Tat displ 2.4.
O=C1COc2ccc(NC(=O)C3COc4ccccc4O3)cc2N1 (stereo not drawn) was read as TAR Tat displ 1.7 and CDC25B CDK2 inh -0.51.
`COCCNc1cc(N(C)CCO)c2noc3c2c1C(=O)c1ccccc1-3` gave TAR Tat displ -0.49 and CDC25B CDK2 inh -1.3.
For O=C(c1ccccc1)C(C(=O)N1CCC(Cc2ccccc2)CC1)n1ccccc1=O (stereo not drawn) the results were TAR Tat displ -1.9 and CDC25B CDK2 inh 2.4.
N#Cc1ccsc1NS(=O)(=O)c1ccc(OC(F)(F)F)cc1 was read as CDC25B CDK2 inh -3.5.
`Cc1cc(CNC(=O)Nc2csc3ccccc23)no1` gave CDC25B CDK2 inh -5.
`CCc1ccccc1Nc1ncnc2c1nc1n2CCCCC1` gave TAR Tat displ -0.28.
For COc1cc2c(=O)c(C(=O)c3ccccc3)cn(Cc3ccccc3F)c2cc1OC the results were TAR Tat displ -0.37 and CDC25B CDK2 inh 0.5.

Sorted by count of non-hydrogen atoms (largest number first): some entries from above
`COCCNc1cc(N(C)CCO)c2noc3c2c1C(=O)c1ccccc1-3` gave TAR Tat displ -0.49 and CDC25B CDK2 inh -1.3.
For CCOC(=O)c1nc(N2CCOCC2)c2ccccc2n1 the results were TAR Tat displ 1.2.
`Cc1cc(CNC(=O)Nc2csc3ccccc23)no1` gave CDC25B CDK2 inh -5.

Assay outcomes deposited in PubChem BioAssay by Center for Chemical Genomics, University of Michigan.
